Screening results (PubChem)
FGF22 binding: FGF22 (human) thermal shift binding; Q9HCT0; recombinant FGF22 thermal shift, SYPRO orange fluorescence; percent of sucrose octasulfate shift, DMSO zero; calls only at 9.99 µM; 340,000 tested, 1.5% active; AID 651658;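 active = melting point raised past a set limit in the mean and every replicate; inconclusive = no clear call; three in four hits are not shown here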
Target sequence (Q9HCT0 whole entry, looked up): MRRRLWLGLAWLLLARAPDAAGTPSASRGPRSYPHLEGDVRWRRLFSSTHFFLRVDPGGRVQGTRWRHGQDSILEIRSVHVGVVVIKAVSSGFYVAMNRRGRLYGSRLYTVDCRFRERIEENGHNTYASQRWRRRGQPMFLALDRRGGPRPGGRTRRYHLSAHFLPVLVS
Beta cell apopt: beta cell apoptosis inhibition | INS-1E cytokine-induced death, ATP luminescence, 48 h; percent of positive-control rescue, neutral wells zero | protection from apoptosis, % (test concentration not listed) | 300,000 tested, 0.8% active | AID 435005;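 active = all replicates at 75% or more, or half of them and the mean; inconclusive = half reach 75% but not the mean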;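 also: 0% = cytokine-treated negative control wells and 100% = positive control rescue; higher means more ATP so stronger rescue from cytokine killing; wells of about 40 µL received 100 nL stock; the first replicate is given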
Ecoli growth: blocks Escherichia coli growth. OD600, 23 h; stronger effect = lower value. OD600 absorbance (no concentration beside the values). 330,000 tested, 0.21% active. AID 1053175;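 active = OD600 absorbance below the run mean of sample wells minus 3.6 SD, in any replicate, cut at about 0.56 in these data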;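 also: stock transfer was 300 nL into about 60 µL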
AF4-AF9 inh: inhibitors of human MLL-AF4/AF9 interaction; P42568; AlphaScreen, biotin-AF4 peptide binding to FLAG-AF9; inhibition, % at 10 µM; 350,000 tested, 0.47% active; AID 651704;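 active = every replicate reaching a set inhibition limit, whatever the replicate mean, cut at about 25% in these data; inconclusive = mean inhibition reaches that limit but some replicates miss it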;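 also: 0% = plate neutral control median and 100% = total signal loss; the record names both 10 and 1 µM as test concentration; the first replicate is given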
Target sequence (P42568 whole entry, looked up): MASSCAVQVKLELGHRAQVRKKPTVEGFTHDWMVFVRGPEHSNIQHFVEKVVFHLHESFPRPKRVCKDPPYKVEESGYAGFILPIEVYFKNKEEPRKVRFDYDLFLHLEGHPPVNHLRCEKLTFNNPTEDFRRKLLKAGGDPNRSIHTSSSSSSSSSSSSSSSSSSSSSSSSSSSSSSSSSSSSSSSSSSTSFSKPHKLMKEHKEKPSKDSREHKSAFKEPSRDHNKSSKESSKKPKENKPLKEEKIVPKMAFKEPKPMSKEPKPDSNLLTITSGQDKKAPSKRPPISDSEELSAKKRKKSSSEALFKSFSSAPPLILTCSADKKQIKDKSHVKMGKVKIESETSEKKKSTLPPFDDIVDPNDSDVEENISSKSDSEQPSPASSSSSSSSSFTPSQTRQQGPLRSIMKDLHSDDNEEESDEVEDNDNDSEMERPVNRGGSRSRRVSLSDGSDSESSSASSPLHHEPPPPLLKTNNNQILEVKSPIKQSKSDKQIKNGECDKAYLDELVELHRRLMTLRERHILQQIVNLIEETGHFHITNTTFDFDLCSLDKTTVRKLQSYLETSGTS
UCH37 DUB inh: blocks the human deubiquitinase UCH37; Q9Y5K5; purified proteasome/UCH37, Ub-AMC cleavage fluorescence; inhibition, % (no concentration beside the values); 330,000 tested, 0.33% active; AID 588478;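 active = mean of two replicates above 20%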;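 also: 0% = compound-free wells with enzyme and 100% = wells lacking proteasome; stock transfer was 100 nL into about 20 µL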
Target sequence (Q9Y5K5 whole entry, looked up): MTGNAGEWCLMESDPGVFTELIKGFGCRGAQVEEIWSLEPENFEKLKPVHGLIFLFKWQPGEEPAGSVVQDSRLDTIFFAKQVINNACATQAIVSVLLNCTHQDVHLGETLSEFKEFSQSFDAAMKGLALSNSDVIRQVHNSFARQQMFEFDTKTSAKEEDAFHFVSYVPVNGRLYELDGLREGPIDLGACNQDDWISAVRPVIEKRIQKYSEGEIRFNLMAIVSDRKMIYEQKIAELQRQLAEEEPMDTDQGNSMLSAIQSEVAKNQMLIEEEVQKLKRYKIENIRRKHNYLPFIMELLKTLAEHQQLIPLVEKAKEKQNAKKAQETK
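assay system = human UCH37 enzyme supplied as purified proteasome complex | amount = proteasome at 0.15 nM in the dispensed enzyme solution | schedule = 30 min compound-proteasome preincubation then 25 min substrate reaction, room temperature | measured by = fluorescence, ex 355 nm, em 460 nm | benchmarks = no-proteasome wells (full inhibition) and compound-free wells (no inhibition)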
Bfl-1 A1 inh: inhibitors of the anti-apoptotic protein A1, read as caspase activation | MEF A1-2A-BIM cells, Caspase-Glo 3/7 luminescence, 3 h; percent of clofoctol response, vehicle zero | caspase activation, % (test concentration not listed) | 330,000 tested, 0.066% active | AID 2462;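 active = over half of replicate activation scores above 10%, or exactly half above 10 with the replicate mean above 10; inconclusive = replicate mean below 10 yet half the replicates above 10; inactive = over half of replicates below 10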;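 also: wells of about 30 µL received 50 nL stock; many hits fall short of the cut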
T cruzi inh: T. cruzi replication inhibition | T. cruzi beta-gal in NIH3T3, luminescence, 90 h | inhibition, % (no concentration beside the values) | AID 1885 | 300,000 tested, 1.4% active;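 active = mean inhibition across valid replicates above about 55%, limit read from the data; inconclusive = mean below that limit but half or more replicates reach it; inactive = mean below it, under half of replicates reach it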;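 also: signal also drops with host cell toxicity which is not excluded here; 0% = plate median of DMSO wells and 100% = zero luminescence signal; higher percent means less beta-gal luminescence so fewer parasites; stock transfer was 50 nL into about 50 µL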
Ecoli rRNA inh: selective bacterial rRNA inhibition in E. coli | GFP signal change (wild-type ribosome), % (no concentration beside the values) | AID 720706 | E. coli WT GFP vs humanized-ribosome RFP mutants, fluorescence, 24 h; stronger effect = lower value; DMSO median 0, no signal -100 | 350,000 tested, 1.6% active;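 active = significant combined selectivity score with lowered wild-type GFP, culture density cut under 30%, mutant RFP and density less affected; inactive = any of these conditions unmet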; also: one replicate is shown; some compounds called inactive have numbers as strong as hits
Ecoli rRNA inh OD600: second read-out of Ecoli rRNA inh, no call of its own (marks repeat the call); OD600 change, %; measured here: OD600 growth;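 optical density of the mix in the first replicate; 0 = DMSO median and -100 = no signal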
Ecoli rRNA inh RFP: further read-out of Ecoli rRNA inh, marked with its call; RFP signal change, %; measured here: RFP humanized mutant strains;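 first replicate; 0 = DMSO median and -100 = no signal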
Active calls of the source: *; i = inactive; ? = inconclusive; nt = not tested or not shown. Only part of the results is shown; count on the stated rates, not on these rows.

Order of results: FGF22 binding, Ecoli rRNA inh RFP, UCH37 DUB inh, Bfl-1 A1 inh, Ecoli rRNA inh OD600, Beta cell apopt, AF4-AF9 inh, Ecoli growth, Ecoli rRNA inh, T cruzi inh
CN(Cc1ccc(OC(F)F)cc1)C(=O)c1ccc2nccnc2c1
    nt, nt, -0.3, 0.1, nt, 2, nt, 0.67, nt, -3
CCOc1ccc(NC(=O)c2ccc(OCC3CCCO3)cc2)cc1S(=O)(=O)N(CC)CC (centres undefined)
    i, -2.1, 1.3, 1.4, 9, -6, 2.8, 0.64, 3, nt
COc1ccccc1N(CC(=O)NCCSCc1ccccc1)S(=O)(=O)c1ccc(C)cc1
    i, -1.9, 4.3, -0.1, -4, nt, -2.5, 0.68, 2, 3
COc1cc(C)nc(NS(=O)(=O)c2ccc(C)cc2)n1
    nt, nt, 4.1, 0.1, nt, -8, nt, 0.69, nt, -9
Cc1ccc(S(=O)(=O)N(C)c2ccccc2C(=O)NC2CCCC2)cc1
    i, 4.1, nt, 1.3, -28, 0, 4.6, nt, -20, 4
CN(Cc1ccccc1)S(=O)(=O)c1cccs1
    nt, 2.6, 0.5, 0.3, 4, 2, 2.3, 0.67, 2, -2
CN1c2ccccc2-c2nc3ccccc3n2C1c1ccncc1 (centres undefined)
    nt, 3.4*, nt, -0.6, -5.2*, -4, nt, nt, -23*, 11
COc1ccc(OCC(=O)Nc2cc(-c3nn4c(C)nnc4s3)ccc2C)cc1
    i, -2.3, 2.7, -1.3, 8, -4, -1.4, 0.78, 0, -3
Cc1ccccc1C(=O)N1CCC(C(=O)Nc2ccc(S(=O)(=O)N3CCOCC3)cc2)CC1
    i, 0.5, -2.2, -0.8, 2, -4, 1.9, 0.68, 2, nt
COc1ccc(OC)c(N=C2C(=O)Nc3ccccc32)c1
    nt, nt, 0.9, -1.2, nt, 3, nt, 0.66, nt, 34

The list continues.
Order of results: FGF22 binding, Ecoli rRNA inh RFP, UCH37 DUB inh, Bfl-1 A1 inh, Ecoli rRNA inh OD600, Beta cell apopt, AF4-AF9 inh, Ecoli growth, Ecoli rRNA inh, T cruzi inh
COc1nc(OC/C(N)=N/O)nc(N2CCOCC2)n1
    nt, nt, 0.0, 2.8, nt, -2, nt, 0.72, nt, -12
COc1cc(/C=C/C(=O)O)ccc1OS(=O)(=O)c1ccc(C)cc1
    i, -13, 7.6, 0.5, -45, -5, -3.4, 0.63, -17, -6
COC(=O)c1ccc(OC(=O)c2cccs2)cc1
    i, -0.9, nt, 0.6, -11, -10, -0.1, nt, 3, -17
O=C(CCS(=O)(=O)c1ccc(Cl)cc1)Nc1cccc(S(=O)(=O)N2CCCCCC2)c1
    i, -5.6, 2.4, nt, -39, nt, 1.6, 0.67, -21, nt
O=C(NCc1ccccc1C(F)(F)F)C1CCC(=O)N(CCCc2ccccc2)C1 (centres undefined)
    i, 2.1, nt, 0.3, 8, 1, -2.7, nt, -2, 8
CC(=O)NC(Cc1cccc(C)c1)C(=O)NC1CCN(C(=O)c2ccc([N+](=O)[O-])cc2)CC1 (centres undefined)
    i, 1.4, 3.2, -0.1, 2, -3, -0.9, 0.72, 4, -1
Cc1ccc(C(=O)OC(C)C(=O)Nc2ccc3c(c2)OCO3)c(O)c1 (centres undefined)
    i, -1.1, 0.3, 2.5, 16, 5, 2.5, 0.69, 0, nt
COc1ccc(C(=O)NC2CCCc3c2cnn3-c2cccc(C)c2C)o1 (centres undefined)
    i, -3.8, -2.8, 0.1, -19, 15, 5.1, 0.72, -14, -12
CCN1CCN(c2nc(Nc3ccccc3F)nc(N)c2[N+](=O)[O-])CC1
    i, -1.0, 8.9, 0.5, 4, -9, 0.4, 0.63, 16, 0
COc1ccc(NS(=O)(=O)c2cccc(C(=O)OCC(=O)c3c(N)n(C)c(=O)n(C)c3=O)c2)cc1
    i, 5.1, 3.8, ?, -11, 3, 4.8, 0.7, 0, nt

Another view of three compounds above.
| compound | FGF22 binding | Ecoli rRNA inh RFP | UCH37 DUB inh | Bfl-1 A1 inh | Ecoli rRNA inh OD600 | Beta cell apopt | AF4-AF9 inh | Ecoli growth | Ecoli rRNA inh | T cruzi inh |
| --- | --- | --- | --- | --- | --- | --- | --- | --- | --- | --- |
| CCOc1ccc(NC(=O)c2ccc(OCC3CCCO3)cc2)cc1S(=O)(=O)N(CC)CC (centres undefined) | i | -2.1 | 1.3 | 1.4 | 9 | -6 | 2.8 | 0.64 | 3 | nt |
| COc1cc(C)nc(NS(=O)(=O)c2ccc(C)cc2)n1 | nt | nt | 4.1 | 0.1 | nt | -8 | nt | 0.69 | nt | -9 |
| COc1ccc(OC)c(N=C2C(=O)Nc3ccccc32)c1 | nt | nt | 0.9 | -1.2 | nt | 3 | nt | 0.66 | nt | 34 |

New compounds follow:
Order of results: FGF22 binding, Ecoli rRNA inh RFP, UCH37 DUB inh, Bfl-1 A1 inh, Ecoli rRNA inh OD600, Beta cell apopt, AF4-AF9 inh, Ecoli growth, Ecoli rRNA inh, T cruzi inh
Cc1cc(Cl)cc(Br)c1OCCNCC(C)O (centres undefined)
    nt, -2.2, -5.5, -0.4, 9, -2, nt, 0.72, 0, 3
Cc1nn(-c2ccc(Cl)c(Cl)c2)c(C)c1C(=O)O
    i, -3.5, 1.8, 1.7, -12, -1, -0.6, 0.69, -8, -29
COc1cccc(-c2nn(-c3ccccc3)cc2C(=O)NCC(=O)O)c1
    nt, nt, 2.2, -0.3, nt, -7, nt, 0.7, nt, -13
CC(=O)NC(CC(=O)Oc1ccc(C)cc1Br)c1ccccc1 (centres undefined)
    i, 2.3, 0.1, -2.3, -8, -1, -0.4, 0.7, 7, -17
O=C(Nc1c2c(nn1-c1cccc(Cl)c1)CS(=O)C2)c1ccc2c(c1)OCO2 (centres undefined)
    i, 1.6, -0.4, 0.2, 14, -8, -1.4, 0.66, 12, -6
CC[C@@]1(C(=O)OC)N[C@H](CN(C)S(=O)(=O)c2ccccc2)[C@@H]2C(=O)N(C)C(=O)[C@@H]21
    i, 0.2, 5.8, nt, 7, nt, 0.2, 0.72, 9, nt
O=C(CN(C(=O)c1csnn1)c1ccc(Cl)cc1)NCCc1ccccc1
    i, -0.1, 0.5, -0.1, 0, -4, 0.5, 0.67, -2, -7
Cc1cccc(-n2c(O)c(C=Nc3ccccc3N)c(=O)[nH]c2=O)c1
    nt, nt, 14, 0.4, nt, -7, nt, 0.72, nt, -20
C=CCCN(C(CC(C)C)C(=O)OC)S(=O)(=O)c1ccccc1Br (centres undefined)
    i, -1.3, 4.0, 1.2, -6, 1, -0.3, 0.68, -2, -4
CCN1CCCC1CNC(=O)c1cc(OC)c(OC)c(OC)c1 (centres undefined)
    nt, nt, -0.4, 0.8, nt, -7, nt, 0.69, nt, -4

Continued:
Order of results: FGF22 binding, Ecoli rRNA inh RFP, UCH37 DUB inh, Bfl-1 A1 inh, Ecoli rRNA inh OD600, Beta cell apopt, AF4-AF9 inh, Ecoli growth, Ecoli rRNA inh, T cruzi inh
COc1ccc(Cl)cc1NC(=O)Nc1cccc([N+](=O)[O-])c1C
    nt, -3.6*, -2.9, 0.4, -21*, 15, nt, 0.69, -32*, 47
Cc1ccc(NC(=O)COc2ccc(Cl)cc2Cl)cc1S(=O)(=O)N1CCOCC1
    i, -4.0, 2.6, nt, -38, nt, -1.4, 0.65, -20, nt
c1ccc(-n2cc(CNCCc3cscn3)c(-c3ccc4c(c3)OCO4)n2)cc1
    i, 2.9, -1.0, -0.5, -6, -1, 8.3, 0.67, -10, 13
CC(=O)c1ccc(S(=O)(=O)Nc2ccc(C(=O)NCCCn3ccnc3)cc2)cc1
    i, 1.1, 2.7, 0.6, -1, -5, -1.6, 0.64, 7, nt
O=C(C1CCCO1)N1CCN(c2ccc(F)cc2)CC1 (centres undefined)
    nt, nt, 1.8, -1.0, nt, 0, nt, 0.73, nt, -13
COc1ccc(CCNC(=O)c2nnc(CS(=O)(=O)c3ccccc3)o2)cc1OC
    i, 0.9, 0.0, -0.5, 8, -1, -8.8, 0.74, -4, 4
C#CCOC(=O)C[N+](C)(C)CC#Cc1ccccc1
    i, -1.1, 4.1, 1.2, 16, -1, -0.6, 0.66, 16, -11
COc1ccc(N2CCN(C(=O)CCC(=O)N3CCOc4ccc(Cl)cc43)CC2)cc1
    i, -0.3, 0.6, -0.4, 9, -1, 8.4, 0.68, 0, -2
CS(=O)(=O)N1CCC(C(=O)Nc2cc(C(F)(F)F)ccc2Cl)CC1
    nt, nt, 1.4, -0.2, nt, -1, nt, 0.71, nt, -10
COc1ccc(-c2ccc(-c3nnc(Cc4ccc(OC)c(OC)c4)o3)cc2)cc1
    nt, nt, -14, -0.7, nt, 0, nt, 0.76, nt, -11

Carrying on:
Order of results: FGF22 binding, Ecoli rRNA inh RFP, UCH37 DUB inh, Bfl-1 A1 inh, Ecoli rRNA inh OD600, Beta cell apopt, AF4-AF9 inh, Ecoli growth, Ecoli rRNA inh, T cruzi inh
Cc1ccc(C)c2c1cc(C)c1nnc(SCC(=O)c3cccs3)n12
    nt, nt, 1.0, -0.1, nt, 1, nt, 0.66, nt, 7
Cc1ccc2c(c1)N(CCC(=O)NCCCOC(C)C)C(=O)C(C)O2 (centres undefined)
    nt, nt, 3.8, ?, nt, 1, nt, 0.75, nt, 0
Cc1cc(C(=O)N/N=C/C=C/c2ccccc2)n[nH]1
    i, -2.2, nt, 0.1, -2, 3, -4.7, nt, 6, -12
COCCCNC(=O)Cn1nnc(-c2ccc(NC(=O)c3cccnc3)cc2)n1
    nt, nt, 2.8, 0.6, nt, 97*, nt, 0.65, nt, -6
Cc1ccc(C(C(=O)NCc2ccc(F)cc2)N(C(=O)c2csnn2)C2CC2)cc1 (centres undefined)
    i, nt, 0.4, -0.5, nt, -3, 0.9, 0.64, nt, 6
CCOC(=O)c1c(C)[nH]c(C(=O)Cn2c(=O)oc3ccccc32)c1C
    nt, nt, 2.4, -0.4, nt, -3, nt, 0.79, nt, 7
CCNC(=S)NNC(=O)Nc1ccccc1
    i, -3.2, 3.7, 0.1, 6, -1, 0.5, 0.71, 1, -5
COc1ccc(OC)c([N+](=O)[O-])c1C(N)=O
    i, -5.7, 5.8, -0.3, 1, -3, -1.9, 0.72, 0, -5
O=C(Cc1cn(Cc2cccc(Cl)c2)c2ccccc12)N1CCCC1
    nt, nt, 4.0, -0.5, nt, 1, nt, 0.65, nt, 15
O=C(COc1cccnc1[N+](=O)[O-])NCc1ccc(F)cc1
    i, -0.8, 0.2, 0.0, 0, 6, -0.4, 0.67, -4, 8
Cc1ccc(C(O)c2nc3ccccc3n2C)cc1 (centres undefined)
    i, 4.2, 4.1, 0.2, 0, -14, -1.7, 0.66, -14, 5
CCCCOC(=O)c1nnc(-c2ccccc2)o1
    i, -0.9, 2.3, -0.9, 10, 0, -1.1, 0.68, 7, -7
